# Assay outcomes deposited in PubChem by several laboratories.
# MLL AF4-AF9 inh: MLL-AF4/AF9 protein interaction inhibition; AlphaScreen, biotin-AF4 peptide binding to FLAG-AF9; inhibition, % at 10 µM; hit rate 0.47% among 350,000; P42568;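 active = every replicate reaching a set inhibition limit, whatever the replicate mean, cut at about 25% in these data; inconclusive = mean inhibition reaches that limit but some replicates miss it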;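 note: 0% = plate neutral control median and 100% = total signal loss; the record names both 10 and 1 µM as test concentration; the first replicate is given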
# Target sequence (P42568 whole entry, looked up): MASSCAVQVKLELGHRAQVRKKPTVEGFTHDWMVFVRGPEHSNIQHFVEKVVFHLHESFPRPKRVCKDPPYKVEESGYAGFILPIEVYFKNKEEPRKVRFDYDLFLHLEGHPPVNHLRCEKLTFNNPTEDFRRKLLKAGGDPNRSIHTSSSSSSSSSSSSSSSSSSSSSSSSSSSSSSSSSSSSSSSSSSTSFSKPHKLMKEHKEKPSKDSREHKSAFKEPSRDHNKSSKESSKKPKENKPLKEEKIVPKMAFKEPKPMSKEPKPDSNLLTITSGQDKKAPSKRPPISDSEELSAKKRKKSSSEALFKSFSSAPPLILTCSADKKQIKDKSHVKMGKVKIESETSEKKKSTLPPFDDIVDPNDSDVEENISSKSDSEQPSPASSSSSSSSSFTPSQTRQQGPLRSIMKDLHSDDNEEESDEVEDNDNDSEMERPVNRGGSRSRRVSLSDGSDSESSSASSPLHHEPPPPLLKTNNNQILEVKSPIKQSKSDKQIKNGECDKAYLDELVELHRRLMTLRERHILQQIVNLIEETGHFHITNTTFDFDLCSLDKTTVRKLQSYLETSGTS
# Beta cell apopt: beta cell apoptosis inhibition; INS-1E cytokine-induced death, ATP luminescence, 48 h; percent of positive-control rescue, neutral wells zero; protection from apoptosis, % (concentration not given with the values); hit rate 0.8% among 300,000;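 active = all replicates at 75% or more, or half of them and the mean; inconclusive = half reach 75% but not the mean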;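 note: 0% = cytokine-treated negative control wells and 100% = positive control rescue; higher means more ATP so stronger rescue from cytokine killing; wells of about 40 µL received 100 nL stock; the first replicate is given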
# T cruzi inh: blocks replication of Trypanosoma cruzi | T. cruzi beta-gal in NIH3T3, luminescence, 90 h | AID 1885 | hit rate 1.4% among 300,000 | inhibition, % (test concentration not listed);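 active = mean inhibition across valid replicates above about 55%, limit read from the data; inconclusive = mean below that limit but half or more replicates reach it; inactive = mean below it, under half of replicates reach it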;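 note: signal also drops with host cell toxicity which is not excluded here; 0% = plate median of DMSO wells and 100% = zero luminescence signal; higher percent means less beta-gal luminescence so fewer parasites; stock transfer was 50 nL into about 50 µL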
# Vif A3G: inhibitors of Vif binding to APOBEC3G peptide, primary screen, biochemical, TR-FRET, GST-Vif 1-94, biotin-A3G peptide, dose response retest (AID 1117319). one-dose inhibition, %; IC50 in µM for titrated hits. TR-FRET GST-Vif / biotin-A3G peptide binding; higher % means a stronger effect; test concentration not given here; strong numbers were not always called active. hit rate 0.57% among 260,000;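 active = above the screen mean plus three standard deviations and confirmed in dose response; inconclusive = results disagree or hit not tested in dose response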;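 note: Vif residues 1-94 fused to GST binding biotinylated APOBEC3G peptide 110-148; 0% = full assay without inhibitor and 100% = GST in place of GST-Vif; retest series ran down from 100 µM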
# A1 inh: inhibitors of the anti-apoptotic protein A1, read as caspase activation; MEF A1-2A-BIM cells, Caspase-Glo 3/7 luminescence, 3 h; percent of clofoctol response, vehicle zero; hit rate 0.066% among 330,000; AID 2462; caspase activation, % (test concentration not listed);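 active = over half of replicate activation scores above 10%, or exactly half above 10 with the replicate mean above 10; inconclusive = replicate mean below 10 yet half the replicates above 10; inactive = over half of replicates below 10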;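 note: wells of about 30 µL received 50 nL stock; many hits fall short of the cut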
# RanGTP-Impb inh: inhibitors of RanGTP-importin-beta interaction, primary screen, biochemical, FRET, CFP-Ran, YFP-importin-beta, homogeneous. cell-free CFP-Ran/YFP-importin-beta FRET ratio. inhibition, % (no concentration beside the values). hit rate 1.1% among 300,000;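 active = most replicates above 15%; inconclusive = exactly half above 15%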;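 note: 0% = DMSO wells and 100% = Ran loaded with GDP instead of GTP; wells of about 40 µL received 100 nL stock; the first replicate is given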
# Calb FLC: affects C. albicans growth with fluconazole. C. albicans CaCi-2 (fluconazole-resistant clinical isolate) + fluconazole, Alamar Blue growth, 48 h. growth inhibition, % (no concentration beside the values). hit rate 0.57% among 300,000;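 active = most replicates above 75%; inconclusive = exactly half above 75%; inactive = most below 75%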;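 note: all wells also contain fluconazole at 8 µg/ml as a sub-toxic cotreatment; 0% = median of DMSO wells and 100% = median of geldanamycin control wells; wells of about 8 µL received 7.5 nL stock; the first replicate is given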
# rRNA inh HTS: inhibits bacterial ribosomal RNA function over humanized ribosomes. E. coli WT GFP vs humanized-ribosome RFP mutants, fluorescence, 24 h; stronger effect = lower value; DMSO median 0, no signal -100. GFP signal change (wild-type ribosome), % (test concentration not listed). hit rate 1.6% among 350,000. AID 720706;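 active = significant combined selectivity score with lowered wild-type GFP, culture density cut under 30%, mutant RFP and density less affected; inactive = any of these conditions unmet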; note: one replicate is shown; some compounds called inactive have numbers as strong as hits
# rRNA inh HTS OD600: second read-out of rRNA inh HTS, no call of its own (marks repeat the call); OD600 change, %; measured here: OD600 growth;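 optical density of the mix in the first replicate; 0 = DMSO median and -100 = no signal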
# rRNA inh HTS RFP: recorded beside rRNA inh HTS, whose call it bears; RFP signal change, %; measured here: RFP humanized mutant strains;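 first replicate; 0 = DMSO median and -100 = no signal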
# Starred values were filed as active, the others as inactive; ? = inconclusive; . = no result given; & = joins results of further samples; ! = a repeat was not active. An excerpt; count on the stated rates, not on these rows.
nr	smiles	MLL AF4-AF9 inh	Beta cell apopt	T cruzi inh	Vif A3G	A1 inh	RanGTP-Impb inh	Calb FLC	rRNA inh HTS	rRNA inh HTS OD600	rRNA inh HTS RFP
1	CCOC(=O)/C(=N/Nc1ccccc1)Sc1nnnn1-c1ccc(C)cc1	.	-6	-8	0%	0.7	-1.3	3	.	.	.
2	O=C(O)c1ccccc1-c1ccccc1C(=O)NNc1ccccc1	.	-3	5	.	0.4	-0.3	-10	.	.	.
3	CS(=O)(=O)OCCCCOS(C)(=O)=O	-2.9	1	-3	.	-1.1	3.7	.	4	6	0.9
4	O=C(COC(=O)CCN1C(=O)C2CC=CCC2C1=O)Nc1ccc(Cl)cc1F (stereo not given)	6.8	-8	.	-9%	0.3	.	.	-1	-1	0.7
5	CCOC(=O)C(C)c1c(C)[nH]c(=S)[nH]c1=O (stereo not given)	.	-4	-4	4%	0.3	2.1	8	.	.	.
6	O=C(Cn1cnc2ccccc2c1=O)c1ccc(OC(F)F)cc1	-6.3	3	-11	.	0.6	-20	0	5	5	-0.4
7	COc1ccc(NC(=O)NCCc2c[nH]c3ccccc23)c(OC)c1	6.2	2	8	2%	0.3	0.0	-3	3	-19	2.8
8	O=[N+]([O-])c1ccc(NCc2ccccn2)nc1	-1.9	-4	-17	.	-1.5	-3.7	3	60	8	36
9	OCC1CCCN(c2nc(CN3CCCCC3)nc3scc(-c4ccccc4)c23)C1 (stereo not given)	5.7	6	0	5%	1.0	0.6	-22	-3	-11	-1.2
10	CN1CCN(c2ccc(NC(=O)c3ccc(-c4ccccc4F)o3)cc2)CC1	6.7	3	.	0%	?	.	.	-14	-3	2.8
11	Cc1ccc(S(=O)(=O)Nc2cccc3c2CCCC3)cc1	.	.	12	.	0.5	-0.1	8	.	.	.
12	COc1ccccc1Nc1nc(N(C)c2ccccc2)nc(N)c1[N+](=O)[O-]	.	-6	32	-7%	-1.1	-2.9	5	.	.	.
13	COC(=O)CSc1nnc(-c2ccccn2)n1Cc1ccco1	-3.4	-5	2	15%	1.0	?	1	2	-4	6.1
14	O=C(Nc1nnc(SCC(=O)N2CCOCC2)s1)C1CC(=O)N(c2ccc(F)cc2)C1 (stereo not given)	0.1	2	-11	.	-0.4	0.2	2	6	7	4.5
15	Cc1ccc(-n2cnnn2)c(S(=O)(=O)N2CCOCC2)c1	.	0	-13	-1%	0.2	3.0	-6	.	.	.
16	O=C(CN(c1ccc2c(c1)OCCO2)S(=O)(=O)c1ccccc1)NCc1ccco1	.	0	-13	-2%	0.2	4.4	5	.	.	.
17	Cc1cc(NC(=O)C2CCC2)n(-c2ccccn2)n1	.	0	.	-3%	0.3	.	.	2	-2	5.9
18	CC12CC3CC(C)(C1)CC(C(=O)N1CCN(C(=O)C4CCCO4)CC1)(C3)C2 (stereo not given)	-1.4	4	25	.	0.6	.	.	-1	1	-0.4
19	Cc1cccnc1NC(=O)CNC(=O)c1ccccc1	0.5	-3	.	-5%	0.9	.	.	7	9	-2.8
20	O=C(COC(=O)/C=C/c1ccccc1)Nc1cc(C(F)(F)F)ccc1N1CCOCC1	-1.4	-11	-8	19%	-0.6	3.7	-9	14	12	1.4

# 3 entries from above, with values under each structure.
# Fields: MLL AF4-AF9 inh, Beta cell apopt, T cruzi inh, Vif A3G, A1 inh, RanGTP-Impb inh, Calb FLC, rRNA inh HTS, rRNA inh HTS OD600, rRNA inh HTS RFP
(13) COC(=O)CSc1nnc(-c2ccccn2)n1Cc1ccco1
→ -3.4, -5, 2, 15%, 1.0, ?, 1, 2, -4, 6.1
(14) O=C(Nc1nnc(SCC(=O)N2CCOCC2)s1)C1CC(=O)N(c2ccc(F)cc2)C1 (stereo not given)
→ 0.1, 2, -11, ., -0.4, 0.2, 2, 6, 7, 4.5
(6) O=C(Cn1cnc2ccccc2c1=O)c1ccc(OC(F)F)cc1
→ -6.3, 3, -11, ., 0.6, -20, 0, 5, 5, -0.4

# Next results follow.
nr	smiles	MLL AF4-AF9 inh	Beta cell apopt	T cruzi inh	Vif A3G	A1 inh	RanGTP-Impb inh	Calb FLC	rRNA inh HTS	rRNA inh HTS OD600	rRNA inh HTS RFP
21	CCNC(=O)CC1SC(=Nc2ccc(C)c([N+](=O)[O-])c2)N(C)C1=O (stereo not given)	3.5	.	-12	.	-0.4	-2.7	-4	3	5	2.0
22	Cc1ccc(-n2nc3c(c2NC(=O)c2ccc(Br)o2)CSC3)c(C)c1	.	-7	-19	17%	0.4	2.9	18	.	.	.
23	O=[N+]([O-])c1ccccc1S(=O)(=O)c1ccccc1[N+](=O)[O-]	-1.8	-12	-14	.	0.3	-2.0	5	-3	-3	1.8
24	Cc1ccc(C)c(NC(=O)CCC(=O)NNC(=O)c2cccs2)c1	.	-6	-9	?	1.2	2.3	2	.	.	.
25	CN1CCN(C(=O)c2ccc3c(=O)n(Cc4ccco4)c(=S)[nH]c3c2)CC1	.	-2	-8	13%	-0.1	1.4	33	.	.	.
26	CCN(CCNC(=O)c1cc(C)nn1-c1ccccc1)c1ccccc1	6.4	.	-3	6%	0.5	-1.1	7	-18	-12	-3.5
27	C/C(=C\c1ccccc1)CN1CCN(c2ccccc2F)CC1	.	2	5	-1%	-0.5	0.1	-10	-18	-30	5.2
28	Cc1ccc(CON=C2CCN(c3ncc(C(F)(F)F)cc3Cl)CC2)cc1	.	3	25	1%	1.7	0.3	-4	.	.	.
29	Cc1ccc(NC(=O)CN(C)CC(=O)Nc2ccc(N3CCOCC3)cc2)c([N+](=O)[O-])c1	.	-3	-7	24%	0.0	-1.8	3	.	.	.
30	Cc1ccc(N2CC(C(=O)OCC(=O)NNC(=O)c3ccccc3)CC2=O)cc1 (stereo not given)	-17	-7	1	7%	0.2	4.2	3	2	5	-0.1
31	Brc1ccc(CSc2ccc3nnc(-c4ccccn4)n3n2)cc1	-2.4	.	-8	-4%	-0.5	0.7	-8	-5	-12	0.7
32	Cc1cc(-c2csc(NC(=O)c3ccc(S(=O)(=O)N(C)C)cc3)n2)c(C)n1-c1ccccc1	.	-7	-15	15%	2.2	-1.6	19	.	.	.
33	CN1CCN(NC(=O)CN2C(=O)/C(=C/c3ccccc3F)SC2=S)CC1	1.0	-1	-15	.	0.1	-4.1	9	9	8	5.7
34	COC(=O)c1ccc(N2CCN(S(=O)(=O)c3c(C)cc(C)cc3C)CC2)c([N+](=O)[O-])c1	.	-7	14	-9%	0.2	6.3	-1	.	.	.
35	Cc1noc(C)c1S(=O)(=O)N1CCC2(CC1)OCCO2	.	-3	-5	-7%	0.9	-3.1	3	.	.	.
36	O=C(CN1CCN(c2ccccn2)CC1)Nc1ccc(Br)cc1	1.1	-4	3	0%	1.3	1.4	6	-8	-41	-2.5
37	CCc1cccc(C)c1NC(=O)CO/N=C(\C)c1cc2ccccc2o1	.	4	1	0%	1.0	-2.1	-7	.	.	.
38	CC1=NNC(=O)/C1=C\c1cn(-c2ccccc2)nc1-c1cccs1	-1.1	99*	-9	16%	16*	-3.4	32	11	10	-1.8
39	COC(=O)c1ccc(CNC(=O)Cn2cnc3c(OCc4ccccc4)ncnc32)cc1	-0.4	-3	.	5%	-0.5	.	.	9	12	2.1
40	O=C(CCC(F)(F)F)N1CCCC(N2CCN(c3cccc(Cl)c3)CC2)C1 (stereo not given)	-1.4	-2	6	-4%	1.4	2.2	-3	-23*	-15*	-1.9*
41	CN(CC(=O)Nc1ccc(N2CCOCC2)cc1)C(=O)CCc1ccccc1Cl	3.3	.	-9	8%	0.8	3.5	7	-3	-9	-1.3
42	CCOc1cc(-c2sc(Nc3ccccc3)n[n+]2-c2ccc(F)cc2)ccc1OC	0.2	-1	3	.	0.0	3.6	-1	-5	-8	-1.6
43	Cc1cc(=O)[nH]c(SCC(=O)Nc2cccc(S(=O)(=O)N3CCOCC3)c2)n1	-0.1	5	.	-12%	0.9	.	.	8	6	-1.8
44	Cc1ccc(OCC(=O)c2cc(C)n(Cc3ccco3)c2C)c([N+](=O)[O-])n1	-3.3	3	2	.	-0.6	0.6	?	7	10	1.9
45	CC(C)[C@H](NC(=O)c1ccccc1F)C(=O)NCc1ccc(S(N)(=O)=O)cc1	-2.8	2	-13	-12%	0.0	0.5	-3	3	7	-0.8
46	COc1ccccc1N1C(=O)CC(Sc2ccccc2N)C1=O (stereo not given)	-0.2	-2	-13	7%	-0.5	-3.0	.	-9	-13	-3.6
47	CC(C)(C)Nc1nc2nonc2nc1NC(C)(C)C	-3.0	20	-17	-5%	1.4	?	-19	-49*	-37*	-15*
48	Cc1nc2nc(CCc3ccccc3)nn2c(C)c1Cl	.	4	-5	2%	-0.1	-1.7	-5	.	.	.
49	Cn1cnnc1SCC(=O)NC1CCCN(Cc2ccccc2F)C1 (stereo not given)	-0.1	-6	-7	.	-3.9	20	-12	1	-2	-3.8
50	CCC1CCc2c(sc(NC(=O)CSc3nc(-c4ccco4)cc(C(F)(F)F)n3)c2C#N)C1 (stereo not given)	1.6	-4	8	-4%	-0.9	10	-16	14	16	1.5
51	Cc1ccc(S(=O)(=O)N2CCC(C(N)=O)CC2)c(C)c1C	5.1	-19	-11	0%	0.3	0.9	0	6	5	-0.1
52	CCC1Sc2ccc(S(=O)(=O)CCC(=O)Nc3ccc(OC(F)(F)F)cc3)cc2NC1=O (stereo not given)	-16	-6	21	.	0.9	0.2	-3	0	3	1.1
53	COc1ccc(CC(=O)NCCCc2ccccc2)cc1OC	-5.0	3	-11	.	1.3	2.3	-14	0	-2	0.3
54	C=C(Cl)COc1ccc2c(CCC)cc(=O)oc2c1	.	11	7	73%	-0.5	1.0	-15	.	.	.
55	Nc1ccccc1-c1nnc(-c2ccc(-c3ccccc3)cc2)o1	.	-9	26	-2%	-11	4.0	-1	.	.	.
56	Cc1ccc(N2CC(C(=O)NCc3cccs3)CC2=O)cc1C (stereo not given)	.	-4	19	7%	1.0	2.2	-1	.	.	.
57	CCN1CCN(Cc2ccc(C(=O)Nc3ccc(C)c(NCc4cnc(NC(=O)OC)cn4)c3)cc2C(F)(F)F)CC1	20&11	-13	-13	1%	-0.5	-2.6	-25	-17*!	-11*!	5.0*!
58	CCN(CC)C(=O)CSc1nnc(COc2ccccc2)n1N	0.4	-5	-17	.	0.6	2.9	?	10	10	-3.1
59	CCc1cc2c(N[C@@H](Cc3c[nH]c4ccccc34)C(=O)O)ncnc2s1	.	-11	-7	.	0.9	-0.1	4	.	.	.
60	CCn1c(=O)cc(SCC(=O)Nc2ccc3c(c2)OCCO3)c2ccccc21	.	6	0	?	0.6	-17	-20	.	.	.
